Screens: PubChem BioAssay, National Center for Advancing Translational Sciences (NCATS)
gsp antagonist = gsp mutant antagonism. gsp-mutant cells, cAMP HTRF, 30 min; control for the full effect not named in the record. Potency, µM (top dose mostly 76.9 µM), for the others: at the highest dose activity change, negative = inhibition, usual class: inhibitors. AID 624288. 340,000 compounds, 0.4% hits; active = falling curve of any shape with a large fitted effect; inconclusive = falling curve, mostly with a smaller effect; inactive = flat or rising curve; cell line not stated here;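 also: intracellular cAMP measured with PDE inhibitor Ro 20-1724 present during compound exposure; potency is read from the fitted curve at half-maximal effect; % is scaled to controls: 0 for no effect and ±100 for the full control effect; nearly all actives have a fitted effect of over 65% in size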
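Cells, 2000/well, grown 16–24 h in DMEM 10% FBS with 0.5 mg/ml G418, then compounds plus […] (300 uM addition stock), 30 min at 37C. cAMP read by HTRF (cAMP-d2 and anti-cAMP antibody-K in lysis buffer) after 30 min RT.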
D2 agonist = activates the human D2 dopamine receptor | P14416 | DiscoveRx PathHunter D2 beta-arrestin, luminescence, 90 min; 100% = 57 uM dopamine signal | activation, % (concentration not given with the values) | 360,000 compounds, 0.084% hits | AID 624465; in the data active = activation above about 40%; inconclusive = about 15% to 40%; inactive = below about 15%; also: the text of the record calls up to 30% inactive
Target sequence (P14416 whole entry, looked up): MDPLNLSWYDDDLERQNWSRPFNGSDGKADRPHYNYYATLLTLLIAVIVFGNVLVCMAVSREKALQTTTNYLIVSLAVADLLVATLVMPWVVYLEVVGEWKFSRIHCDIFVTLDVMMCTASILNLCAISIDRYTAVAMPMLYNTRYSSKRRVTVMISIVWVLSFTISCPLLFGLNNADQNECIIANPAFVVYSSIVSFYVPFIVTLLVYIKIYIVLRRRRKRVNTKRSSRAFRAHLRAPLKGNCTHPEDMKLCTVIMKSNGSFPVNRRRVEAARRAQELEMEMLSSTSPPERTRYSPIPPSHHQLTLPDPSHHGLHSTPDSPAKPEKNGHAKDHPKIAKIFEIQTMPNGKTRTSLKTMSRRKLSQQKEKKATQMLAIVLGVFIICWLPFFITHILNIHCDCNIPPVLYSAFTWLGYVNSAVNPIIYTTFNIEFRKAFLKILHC
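Agonist mode: compounds alone added to overnight-plated D2 PathHunter cells for 90 min at 37 C, with 57 uM final dopamine (EC100) defining full response. Beta-arrestin recruitment detected by chemiluminescent reagent, read after 1 h at ambient temperature.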
D2 PAM = positive allosteric modulators of human D2 dopamine receptor. P14416. DiscoveRx D2 beta-arrestin cells, luminescence, 90 min; 100% = 57 uM dopamine signal. potentiation, % (no concentration beside the values). 360,000 compounds, 0.23% hits; active = potentiation of 50% or more; inconclusive = 30% to 50%; inactive = 30% or less;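 also: compound concentration not given in the record; tested on top of an EC20 dose of dopamine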
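PathHunter D2 cells, attached overnight at 37 deg C, received compound in DMSO plus dopamine at EC20 (50 nM final) for 90 min at 37 deg C. Beta-arrestin recruitment was read as luminescence after 1 h with detection reagent at ambient temperature.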
Six1-Eya2 blk = Six1/Eya2 interaction inhibition; Q15475+O00167; AlphaScreen GST-Six1/His-Eya2 binding, biochemical; active compounds read low; control for the full effect not named in the record; activity change, % (concentration not given with the values); 360,000 compounds, 0.56% hits; in the data active = activity change below about -65%; inconclusive = about -30% to -65%; inactive = above about -30%; also: % is scaled to controls: 0 for no effect and ±100 for the full control effect
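Homogeneous AlphaScreen proximity assay pairing GST-Six1 with His-tagged Eya2 (added as 5X mix: 250 nM and 500 nM) in 50 mM Tris pH 8.0, 300 mM NaCl, 1 mM TCEP. Glutathione donor and nickel acceptor beads; 1 h, 37 °C, dark.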
gsp agonist = activates gsp, the McCune-Albright syndrome mutation; gsp mutant cells, cAMP HTRF, 30 min; control for the full effect not named in the record; Potency, µM (highest dose often 76.9 µM), without a hit: at the top dose activation (cAMP increase), actives largely listed as activators; 340,000 compounds, 0.13% hits; AID 624287; active = well fitted activation curve with a large enough effect; inconclusive = small, poorly fitted or top-dose-only effect, or another doubt; inactive = no such curve, though single readings can be large or run the other way; cell line not stated here;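 also: phosphodiesterase inhibitor Ro 20-1724 added with compounds to block cAMP breakdown; potency is read from the fitted curve at half-maximal effect; nearly all actives have a fitted effect of over 60% in size; about a fifth of the inactives were tested at one dose only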
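Cells stably selected in G418 were plated at 2000/well, grown 16-24 hr, then given compounds in DMSO with the PDE inhibitor […] (300 uM solution added) for 30 min at 37C; cAMP was read by HTRF.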
CtBP-E1A blk = blocks the CtBP interaction with E1A. AlphaScreen GST-E1A/His-CtBP binding, 1536-well; active compounds read low; control for the full effect not named in the record. activity change, % (test concentration not listed). AID 651724. 340,000 compounds, 0.49% hits; in the data active means activity change below about -65%; inconclusive means about -30% to -65%; inactive means above about -30%; also: % is scaled to controls: 0 for no effect and ±100 for the full control effect
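In 5 uL wells, 23 nL compound meets equimolar GST-E1A and His-CtBP (5X stock 125 nM each) for 2 h, 37 °C. Beads (5X, 50 ug/mL) then 1 h, 37 °C, dark.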
* hit, by the source's call; ? = inconclusive; / = not tested or not shown; [ ] = another dose, or the depositor's remark. An unsorted share of the library, and some 1.4% of all compounds hit somewhere here.

SMILES	gsp antagonist	D2 agonist	D2 PAM	Six1-Eya2 blk	gsp agonist	CtBP-E1A blk
CCC(C(=O)NCc1ccncc1)c1ccccc1 (stereo not given)	8.5%	2.4	-4.2	8.6	-39.7%[inhibitor]	4.0
Cc1sc(NC(=O)C2CCCCC2C(=O)O)c(C(N)=O)c1-c1ccc(C(C)(C)C)cc1 (stereo not given)	-13.4%	-5.1	6.4	7.6	28.8%	0.0
Cn1cnnc1SCC(=O)Nc1cc(S(=O)(=O)N2CCCCC2)ccc1Cl	6.6%	-3.9	-1.9	4.1	70.3%[15.4 µM]	-12.9
Cc1ccc2oc(C(=O)NCCC3CCCCO3)c(C)c2c1 (stereo not given)	-7.9%	-2.5	0.9	10.9	-5.2%	7.8
O=C(NCc1ccco1)c1cc(-c2cccnc2)nc2ccccc12	-7.7%	-4.7	-41.5	-0.2	-29.7%	-1.2
CC(O)[C@H]1CNCCN1CCc1cc(C(F)(F)F)cc(C(F)(F)F)c1 (stereo not given in full)	-2.3%	-3.0	-8.4	10.8	10.8%	/
COc1cc(CN2CCN(C3CCC3)CC2CCO)cc(OC)c1 (stereo not given)	7.9%	-1.3	-4.4	1.9	-2.0%[15.4 µM]	2.9
Nc1c(C(=O)NC2CC2)c2nc3ccccc3nc2n1-c1ccc2c(c1)OCO2	8.4%	-4.2	2.2	-5.5	-37.4%	-4.0
Cc1ccc(C(=O)NNC(=O)c2cc3ccccc3cc2O)cc1	2.8%	2.2	-10.2	-12.4	-0.3%[15.4 µM]	-0.5
COc1cccc2c(SCC(=O)N/N=C/c3ccccc3)cc(C)nc12	0.8%	-4.2	-24.4	-7.1	-17.0%	-2.4
CCOc1ccc2nc3cc(N=Nc4ccc(N)nc4N)ccc3c(N)c2c1	-12.8%	-2.9	-10.7	?	-20.7%	-76.1*
CCOc1ccccc1-n1nnnc1SCC(=O)NC(=O)Nc1ccc2c(c1)OCCO2	3.2%	-2.2	3.3	-2.4	-51.4%[inhibitor]	-12.0
Cc1ccc(CN2CCCN(Cc3c(F)cccc3Cl)S2(=O)=O)cc1	-3.3%	5.0	-2.8	10.1	7.1%	6.2
CC(Sc1nnc(-c2ccccc2F)o1)C(=O)Nc1ccc(N2CCOCC2)cc1 (stereo not given)	1.9%	-1.0	5.5	-2.5	-30.7%	-16.2
COc1cc(/C=C(\C#N)C(N)=O)ccc1OS(=O)(=O)c1ccc(C)cc1	-5.7%	-5.4	-6.9	3.3	27.0%[15.4 µM]	-22.2
COC(C(=O)N/N=C(\C)c1ccc(C)cc1)c1ccccc1 (stereo not given)	12.5%	-3.4	-5.2	4.8	12.8%	-12.4
S=C(Nc1ccccc1Cl)N1CCN(c2ccccn2)CC1	-1.7%	0.8	-4.1	-0.2	-2.6%[15.4 µM]	7.6
COc1cccc(C(C(=O)NC2CCCCC2)N(CC2CCCO2)C(=O)CNC(=O)c2ccco2)c1 (stereo not given)	5.5%	-2.6	-1.8	-2.7	3.2%	2.1
CC(C)c1nnc(NC(=O)CCC(=O)NCc2ccco2)s1	-30.1%	-0.3	20.1	2.9	?	7.5
CCOC(=O)COc1nc(-c2ccc(Cl)cc2)cc(-c2ccco2)c1C#N	6.2%	-0.9	-4.1	0.1	-1.2%[15.4 µM]	-2.5
CCCCC(=O)NN(C)c1nc(-c2ccccc2)nnc1C(F)(F)F	7.4%	0.5	-20.8	-0.2	-2.0%	13.4
Cc1ccc(/C=C/C(=O)O)cc1S(=O)(=O)N1CCc2ccccc21	-31.6%	-5.5	-17.2	3.7	-42.2%[inhibitor]	2.9
O=C(CSc1nnc(-c2ccccn2)n1Cc1ccccc1)NC1CCCC1	-0.9%	-3.0	-17.4	-1.6	-25.2%	-2.3
COc1ccccc1C(=O)NCC(=O)N/N=C/c1ccc([N+](=O)[O-])cc1	6.7%	0.0	-1.7	-1.6	0.9%	-6.3
Cc1ccc(NC(=O)C2CCCN2S(=O)(=O)c2cccc3cccnc23)cc1F (stereo not given)	-11.1%	-2.8	-2.9	-0.9	-36.3%[inhibitor]	2.8

Complete entries as entered above. Order of values: gsp antagonist	D2 agonist	D2 PAM	Six1-Eya2 blk	gsp agonist	CtBP-E1A blk
Entry for O=C(CSc1nnc(-c2ccccn2)n1Cc1ccccc1)NC1CCCC1 → -0.9%	-3.0	-17.4	-1.6	-25.2%	-2.3
Entry for COc1cccc2c(SCC(=O)N/N=C/c3ccccc3)cc(C)nc12 → 0.8%	-4.2	-24.4	-7.1	-17.0%	-2.4
Entry for COc1cccc(C(C(=O)NC2CCCCC2)N(CC2CCCO2)C(=O)CNC(=O)c2ccco2)c1 (stereo not given) → 5.5%	-2.6	-1.8	-2.7	3.2%	2.1
Entry for Cc1ccc2oc(C(=O)NCCC3CCCCO3)c(C)c2c1 (stereo not given) → -7.9%	-2.5	0.9	10.9	-5.2%	7.8

The list continues.
SMILES	gsp antagonist	D2 agonist	D2 PAM	Six1-Eya2 blk	gsp agonist	CtBP-E1A blk
CN1C(=O)C(O)(CC(=O)/C=C/C=C/c2ccccc2)c2ccccc21 (stereo not given)	-2.8%	-2.3	-10.9	0.4	2.1%	19.3
CCN(CC)CCC(c1cc(OC)c(OC)c(OC)c1)c1c(O)cc(OC)cc1OC (stereo not given)	-6.3%	0.3	-24.8	1.8	-9.9%	-3.2
NC(=O)c1ccccc1NC(=O)c1ccccc1Cl	7.1%	-0.1	8.8	-13.9	?	/
CC(C)CNC(=O)CSc1nc2scc(-c3ccccc3)c2c(=O)[nH]1	-0.7%	-1.5	16.5	-9.3	?	-4.7
Cc1ccc(S(=O)(=O)N(CC(=O)O)Cc2ccco2)cc1	8.7%	-0.8	-4.7	-3.9	-29.1%	3.2
CC(=O)Nc1ccc(S(=O)(=O)NCCS(=O)(=O)N2CCN(c3ccccc3)CC2)cc1	0.9%	2.6	-8.7	0.3	12.1%	2.7
COc1ccc(OC(C)C(=O)N(C)Cc2nc(-c3ccc(OC)cc3)no2)cc1 (stereo not given)	-5.4%	-3.3	-6.0	11.5	-7.4%[15.4 µM]	0.0
C/C(=N\O)c1ccco1	0.1%	-3.6	-11.2	0.4	-29.0%	3.2
COc1ccc(C(CNC(=O)CN2C(=O)NC(C)(c3ccc4ccccc4c3)C2=O)N2CCCC2)cc1 (stereo not given)	3.9%	-1.0	-10.3	-14.6	-28.9%	/
CCN(CC(=O)NCc1ccc(Cl)cc1)C(=O)c1sccc1C	-15.2%	-7.3	-4.8	2.3	-47.5%[inhibitor]	1.8
CCN(Cc1nc(-c2ccc(OC)cc2)no1)C(=O)c1ccc2c(c1)OCO2	0.2%	-7.5	-8.5	0.0	-2.4%[15.4 µM]	3.2
Cc1ccc(C)c(NC(=O)CN(C)C(C)C(=O)N2CCCC2)c1 (stereo not given)	-15.5%	-0.5	-10.5	-3.1	7.8%	-6.6
O=C(Cn1c(-c2ccccn2)nc2ccccc21)NCCN1CCOCC1	5.5%	-4.1	-10.6	19.5	-41.8%[inhibitor]	43.9
CC(C)(C)C(=O)Nc1ccccc1C(=O)OCC(=O)c1ccc2c(c1)OCCO2	-10.5%	-1.7	-7.6	4.3	13.7%[15.4 µM]	5.2
Cc1ccc(-c2csc(NC(=O)c3ccno3)n2)cc1	-11.2%	-3.0	0.8	-15.1	-10.5%	0.4
O=C(NCC1CCCO1)C1CC(=O)N(c2ccc(Cl)cc2)C1 (stereo not given)	4.3%	-3.1	3.8	10.3	-18.2%	22.4
OCC1(CO)COC(CCc2ccccc2)=N1	4.1%	6.0	15.1	0.4	-0.7%	/
COC(=O)N/N=C1\CCCc2ccccc21	20.0%	0.5	7.5	12.9	24.8%	7.6
COc1ccc(C(=O)Nc2ccccc2-c2nnn(CC(=O)N3CCOCC3)n2)cc1	-17.9%	-2.2	-1.5	-12.5	?	0.0
COc1ccccc1S(=O)(=O)Nc1ccc(-c2nnc3n2CCCCC3)cc1	-4.0%	-3.7	11.4	0.2	2.4%	2.1
Cc1cccc(NC(=O)CN(c2ccc(F)cc2)S(C)(=O)=O)c1	-0.1%	-3.8	-2.8	7.3	-74.1%[inhibitor]	/
Cc1cccc(NS(=O)(=O)c2ccc(C)c(C(=O)NCc3cccnc3)c2)c1	7.3%	4.8	9.3	-0.2	3.3%	3.0
CC(=O)c1c(C)[nH]c(C(=O)OCC(=O)Nc2cc(C)on2)c1C	3.5%	0.2	1.6	-3.0	-31.5%[inhibitor]	-7.8
CS(=O)(=O)N1CCc2cc(C(=O)N3CCCC3)ccc21	7.8%	3.1	-3.2	6.3	?	13.2
NC(=O)c1ncn([C@@H]2O[C@H](CO)[C@@H](O)[C@H]2O)n1	1.6%	10.8	-9.5	-1.9	/	5.8
CCc1sc(N)nc1-c1ccccc1	2.5%	-1.2	-2.8	-8.5	-4.4%	-6.0
CN1CCN(C(=O)C2CCN(c3ncc(C(F)(F)F)cc3Cl)CC2)CC1	10.4%	-22.9	-9.6	3.8	-0.2%[15.4 µM]	6.1
CC(C)C(=O)Nc1nc2c(c(=O)[nH]1)CCCC2	2.5%	-8.8	-2.5	0.3	11.9%[15.4 µM]	-3.4

In the list so far, 3 have two or more sulfur atoms:
SMILES	gsp antagonist	D2 agonist	D2 PAM	Six1-Eya2 blk	gsp agonist	CtBP-E1A blk
Cn1cnnc1SCC(=O)Nc1cc(S(=O)(=O)N2CCCCC2)ccc1Cl	6.6%	-3.9	-1.9	4.1	70.3%[15.4 µM]	-12.9
CC(C)CNC(=O)CSc1nc2scc(-c3ccccc3)c2c(=O)[nH]1	-0.7%	-1.5	16.5	-9.3	?	-4.7
CC(=O)Nc1ccc(S(=O)(=O)NCCS(=O)(=O)N2CCN(c3ccccc3)CC2)cc1	0.9%	2.6	-8.7	0.3	12.1%	2.7
